T cruzi repl: blocks replication of Trypanosoma cruzi; T. cruzi beta-gal in NIH3T3, luminescence, 90 h; inhibition, % (concentration not given with the values); actives 1.4% (n = 300,000); AID 1885;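 active = mean inhibition across valid replicates above about 55%, limit read from the data; inconclusive = mean below that limit but half or more replicates reach it; inactive = mean below it, under half of replicates reach it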;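 note: signal also drops with host cell toxicity which is not excluded here; 0% = plate median of DMSO wells and 100% = zero luminescence signal; higher percent means less beta-gal luminescence so fewer parasites; stock transfer was 50 nL into about 50 µL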
A1 inh: inhibitors of the anti-apoptotic protein A1, read as caspase activation | caspase activation, % (concentration not given with the values) | MEF A1-2A-BIM cells, Caspase-Glo 3/7 luminescence, 3 h; percent of clofoctol response, vehicle zero | actives 0.066% (n = 330,000) | AID 2462;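 active = over half of replicate activation scores above 10%, or exactly half above 10 with the replicate mean above 10; inconclusive = replicate mean below 10 yet half the replicates above 10; inactive = over half of replicates below 10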;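 note: wells of about 30 µL received 50 nL stock; many hits fall short of the cut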
Beta cell apopt: beta cell apoptosis inhibition; INS-1E cytokine-induced death, ATP luminescence, 48 h; percent of positive-control rescue, neutral wells zero; protection from apoptosis, % (no concentration beside the values); actives 0.8% (n = 300,000); AID 435005;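 active = all replicates at 75% or more, or half of them and the mean; inconclusive = half reach 75% but not the mean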;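 note: 0% = cytokine-treated negative control wells and 100% = positive control rescue; higher means more ATP so stronger rescue from cytokine killing; wells of about 40 µL received 100 nL stock; the first replicate is given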
RanGTP-Imp inh: disruptors of Ran-importin-beta complex formation – biochemical, FRET, CFP-Ran, YFP-importin-beta, homogeneous, primary screen; cell-free CFP-Ran/YFP-importin-beta FRET ratio; inhibition, % (no concentration beside the values); actives 1.1% (n = 300,000); AID 2216;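 active = most replicates above 15%; inconclusive = exactly half above 15%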;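 note: 0% = DMSO wells and 100% = Ran loaded with GDP instead of GTP; wells of about 40 µL received 100 nL stock; the first replicate is given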
Calb FLC: affects C. albicans growth with fluconazole; C. albicans CaCi-2 (fluconazole-resistant clinical isolate) + fluconazole, Alamar Blue growth, 48 h; growth inhibition, % (concentration not given with the values); AID 1979; actives 0.57% (n = 300,000);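 active = most replicates above 75%; inconclusive = exactly half above 75%; inactive = most below 75%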;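 note: all wells also contain fluconazole at 8 µg/ml as a sub-toxic cotreatment; 0% = median of DMSO wells and 100% = median of geldanamycin control wells; wells of about 8 µL received 7.5 nL stock; the first replicate is given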
LANA-H2A inh: blocks KSHV LANA binding to histone H2A/H2B; Q9QR71; cell-free LANA-H2A/H2B peptide, fluorescence polarization; inhibition, % (concentration not given with the values); actives 0.6% (n = 320,000); in the data active = inhibition mostly above about 10%, no sharp cut-off; inactive = mostly below about 6.7%;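 note: stock transfer was 7.5 nL into about 10 µL; 0% = median of vehicle wells and 100% = median of positive control wells; one replicate is shown; the record names a cut of 25% in any replicate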
B2AR ag: agonists of human beta-2 adrenergic receptor inducing internalization. P07550. Am2.2-beta2AR cells, FAP receptor internalization, flow cytometry; reference of the scale not given here. response, % (no concentration beside the values). actives 0.43% (n = 340,000);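 active = response above a set limit, near 3 SD of response in nonfluorescent compounds, cut at about 42% in these data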;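 note: stock transfer was 100 nL into about 11 µL; a reference agonist was the positive control; negative values mostly stem from fluorescent compounds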
Target sequence (P07550 whole entry, looked up): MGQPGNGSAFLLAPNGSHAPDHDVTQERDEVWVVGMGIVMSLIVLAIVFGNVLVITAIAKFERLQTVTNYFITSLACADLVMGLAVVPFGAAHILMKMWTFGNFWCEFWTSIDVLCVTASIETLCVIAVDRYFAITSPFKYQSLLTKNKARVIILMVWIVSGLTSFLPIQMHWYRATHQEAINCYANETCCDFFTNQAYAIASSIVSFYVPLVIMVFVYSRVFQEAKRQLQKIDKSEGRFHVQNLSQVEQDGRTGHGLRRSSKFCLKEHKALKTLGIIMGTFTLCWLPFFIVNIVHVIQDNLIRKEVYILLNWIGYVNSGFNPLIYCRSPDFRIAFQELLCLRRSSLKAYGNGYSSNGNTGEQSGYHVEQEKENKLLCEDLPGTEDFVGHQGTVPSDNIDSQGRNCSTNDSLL
UCH37 DUB inh: human UCH37 deubiquitinating enzyme inhibition | purified proteasome/UCH37, Ub-AMC cleavage fluorescence | inhibition, % (concentration not given with the values) | actives 0.33% (n = 330,000) | Q9Y5K5;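 active = mean of two replicates above 20%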;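 note: 0% = compound-free wells with enzyme and 100% = wells lacking proteasome; stock transfer was 100 nL into about 20 µL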
Target sequence (Q9Y5K5 whole entry, looked up): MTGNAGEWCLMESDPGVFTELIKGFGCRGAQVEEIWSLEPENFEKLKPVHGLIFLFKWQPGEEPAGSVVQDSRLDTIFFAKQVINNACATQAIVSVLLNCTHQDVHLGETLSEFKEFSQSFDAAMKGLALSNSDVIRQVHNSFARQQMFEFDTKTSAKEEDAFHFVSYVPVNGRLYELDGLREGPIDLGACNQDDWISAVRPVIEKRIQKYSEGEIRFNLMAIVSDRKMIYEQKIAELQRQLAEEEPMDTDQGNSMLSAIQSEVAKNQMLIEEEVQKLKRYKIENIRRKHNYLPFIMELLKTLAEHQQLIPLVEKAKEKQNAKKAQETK
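Material: human UCH37 enzyme supplied as purified proteasome complex / Amount: 0.15 nM proteasome as dispensed / Buffer or medium: pH 7.4 Tris-HCl (50 mM) with ovalbumin, ATP-MgCl2, DTT / Times: preincubation 30 min, reaction 25 min, room temperature / Technique: AMC fluorescence from Ub-AMC cleavage, excitation 355 nm, emission 460 nm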
* hit, by the source's call; ? = inconclusive; · = no result given.

SMILES	T cruzi repl	A1 inh	Beta cell apopt	RanGTP-Imp inh	Calb FLC	LANA-H2A inh	B2AR ag	UCH37 DUB inh
COc1ccccc1C(=O)N1CC(=O)Nc2ccc(C)cc2C1c1ccc(F)cc1 (stereo not given)	1	0.7	5	-3.9	1	1.4	4	4.5
O=C(CSc1nc(-c2ccccc2)cc(=O)[nH]1)Nc1ccccc1F	-11	-0.7	-2	-2.6	5	1.3	8	0.0
COc1ccccc1N(C)S(=O)(=O)c1ccc(C(=O)Nc2nc(C)cs2)cc1	2	-0.2	0	2.0	-22	0.6	12	1.9
CCOC(=O)N1CCN(C(=O)c2noc3c2COc2ccccc2-3)CC1	25	0.0	-2	0.3	-1	-1.9	-7	1.0
COCCn1c(SCC(=O)Nc2cc(C)on2)nnc1-c1c[nH]c2ccccc12	-7	0.7	0	-2.9	4	0.7	-10	0.6
COc1ccc(OC)c(-n2c(-c3ccc(C)cc3)n[nH]c2=S)c1	-4	0.4	0	4.2	-1	-2.0	-3	3.7
CCS(=O)(=O)NCCNc1ccc([N+](=O)[O-])cc1	-5	0.1	-7	3.7	5	1.3	-1	16
COc1cccc(OCCNC(=O)c2ccc(C)cc2)c1	5	0.3	2	5.3	-1	-1.0	-1	2.4
S=C(Nc1ccccc1)Nc1ccc(OCc2ccccc2)cc1	8	0.2	-12	4.0	7	4.2	2	-0.7
O=c1c2ccsc2ncn1Cc1ccccc1F	·	0.4	3	·	·	-0.8	4	-0.6
O=C(O)c1cccc(NC2=Nc3cccc4cccc2c34)c1	-3	-7.8	-11	3.9	1	1.8	-2	3.8
COc1ccc(C2=CSC3=NNC4(CCCCC4)NN23)cc1	-2	2.3	-5	0.9	112*	2.3	4	2.4
CCCn1nnnc1SCC(=O)N1CCCCC1	-3	-0.4	-1	4.5	11	-0.4	5	2.2
O=c1c(Cc2c(F)cccc2Cl)c(O)ccn1Cc1ccc(F)cc1	6	-0.2	4	3.5	-8	2.4	5	2.8
COc1cc(CNCCO)cc(Br)c1OCc1ccccc1Cl	22	0.2	7	7.2	2	-7.7	17	·
CS(=O)(=O)Nc1ccc(C2=NN(C(=O)c3ccco3)C(c3cccc(F)c3)C2)cc1 (stereo not given)	10	-0.1	2	1.0	0	1.2	-7	2.1
CC1CCN(C(=O)Cn2nnc(-c3ccc([N+](=O)[O-])cc3)n2)CC1	1	0.6	-3	-1.1	-5	0.1	7	1.9
O=C1CC(=O)C(n2cncn2)C(c2ccc(Cl)cc2)C1 (stereo not given)	?	-0.7	4	1.3	-4	-0.3	4	1.4
Cc1c(C(=O)NCCCn2ccnc2)oc2ccccc12	-2	-0.2	1	-1.5	-7	-0.4	-1	2.2
CCC(C)c1c(O)nc(SCC(=O)Nc2ccccc2)[nH]c1=O (stereo not given)	-2	2.3	2	1.0	3	-4.9	9	9.4
CCC1CCCCN1CCCNC(=O)Cn1ncn2nc(-c3ccc(OC)cc3)cc2c1=O (stereo not given)	16	0.1	-3	3.8	14	-3.4	-1	-3.8
CC(C)CCN1CC(O)=C(c2nc3ccccc3[nH]2)C1=N	7	1.1	-3	-4.2	-29	5.7	10	1.4
COC(=O)Cn1cnc2sc(C)c(S(=O)(=O)N3CCC(C)CC3)c2c1=O	-8	-0.9	2	-3.8	2	1.5	6	1.8
CCCC[C@@H]1C[C@H]1[C@@H](NC(=O)c1ccco1)c1ccc(Cl)cc1	8	0.9	3	1.0	-10	1.3	5	1.8
O=C(Cc1ccc(NC2=NC3CS(=O)(=O)CC3S2)cc1)NCc1ccccc1Cl (stereo not given)	-6	·	2	2.7	14	1.2	5	2.6
(list continues)
SMILES	T cruzi repl	A1 inh	Beta cell apopt	RanGTP-Imp inh	Calb FLC	LANA-H2A inh	B2AR ag	UCH37 DUB inh
O=C(NCc1cccs1)C1CCCN1C(=O)Nc1cccc(F)c1 (stereo not given)	4	0.8	1	-3.6	6	-2.9	0	3.3
Cc1ccc(C(=O)N2CCCC(CCC(=O)N3CCN(c4ccccn4)CC3)C2)cc1 (stereo not given)	20	1.5	3	-0.4	-12	-0.7	-6	0.7
CCOC(=O)c1ccccc1NC(=O)c1cn(-c2ccc(C)c(C)c2)c(=O)c2ccccc12	32	0.3	8	-5.8	4	-0.2	20	2.9
CC(=O)Nc1cccc(NC(=O)CSc2ccc3nnc(CCNC(=O)c4ccccc4)n3n2)c1	-25	0.4	-2	-0.2	2	-3.9	1	1.2
COc1cccc(-c2nc(CS(=O)(=O)CC(=O)NC3CCC(C)CC3)c(C)o2)c1 (stereo not given)	5	0.3	-4	2.1	-18	-4.1	4	1.8
Cc1cc(NS(=O)(=O)c2ccc(NC(=O)C(C)Oc3ccc4c(C)cc(=O)oc4c3)cc2)no1 (stereo not given)	-5	-0.3	-9	0.3	-4	2.9	3	-4.4
COC(=O)C1=C(C)NC2=C(C(=O)CCC2)C1c1ccsc1 (stereo not given)	-5	·	·	-1.2	2	·	·	-22
CC(C)(C)C(=O)NNC(=O)c1ccc(Oc2cc(Cl)cc(Cl)c2)o1	14	0.0	·	-1.6	-4	2.8	-2	3.1
CN(C)S(=O)(=O)N1CCN(S(=O)(=O)N2CCOCC2)CC1	-5	0.4	0	0.5	-8	1.5	11	3.0
O=C(c1ccco1)N(c1ccccn1)c1ccccn1	-10	-0.2	3	-1.1	-5	-4.3	-3	5.9
Cc1ccc(C(=O)NCC(=O)N2CCN(c3ccccc3)CC2)cc1	-13	-0.1	-5	4.6	-15	-3.8	7	4.4
COCCCNC(=O)C1CCC(=O)N(c2ccc3c(c2)OCO3)C1c1ccc(OC)cc1 (stereo not given)	-9	0.2	-6	-2.4	-4	-0.3	1	4.0
C/C(=C\c1ccco1)C1Nc2cccc3cccc(c23)N1	-10	-0.2	11	3.7	15	-9.1	·	·
Cc1ccc(Cn2nc(C)c3cc(C(=O)OCC(N)=O)sc32)cc1	-15	0.0	-2	-0.3	1	1.1	1	1.0
CC1=C(C(=O)OC(C)C)C(c2cccs2)N2C(=O)C(C)SC2=N1 (stereo not given)	-8	0.5	-7	-2.3	7	1.9	2	7.4
O=C(CN1CCN(Cc2ccccc2)CC1)N1CCCc2c1c(=O)oc1ccc(O)cc21	14	0.3	14	4.6	-5	0.1	-1	-0.6
O=S(=O)(c1ccccc1F)N1CCN(c2nc3ccccc3s2)CC1	11	-0.7	·	-0.7	3	-5.4	-4	0.6
Cc1cc(C)c(NC(=O)Cc2ccc(-n3cccc3)cc2)c(C)c1	17	-0.2	-3	3.4	-31	-0.9	-6	2.6
O=C(NCC1(c2ccccc2)CCCC1)c1ccc(Br)o1	2	0.2	2	-1.3	10	2.0	-9	3.3
N#Cc1c(N)n[nH]c1CCCN	-8	1.6	-8	10	17	1.0	-3	1.3
O=C(NCCN1CCOCC1)c1cc(-c2ccc(Br)cc2)on1	5	0.5	-10	11	3	-2.4	-4	5.0
CCc1nc2sc3ccccc3c(=O)c2c(=O)n1CCOC	17	-0.8	1	-1.7	-21	-2.6	-5	2.2
CCOc1ccc(NC(=S)NCc2nc3ccccc3[nH]2)cc1	-11	0.4	-2	3.3	-2	2.2	-7	1.9
Cn1cccc1C(=O)C(=O)Nc1cccc(Cl)c1Cl	-11	-7.4	0	2.0	0	0.8	-1	-5.0
CCOC(=O)Cc1csc(NC(=O)c2ccc(C)o2)n1	8	-0.6	0	2.0	-1	4.0	-6	2.9
Later entries
SMILES	T cruzi repl	A1 inh	Beta cell apopt	RanGTP-Imp inh	Calb FLC	LANA-H2A inh	B2AR ag	UCH37 DUB inh
Cc1ccc(-c2csc(N(CCc3ccccc3)C(=O)COc3ccccc3)n2)cc1	36	0.0	6	3.9	7	-2.9	-3	3.1
CC1CCCN(c2nc(NCc3ccco3)nc(N)c2[N+](=O)[O-])C1 (stereo not given)	-10	-0.3	-5	0.4	-5	-9.3	-6	5.9
COc1ccc(-n2c3c(c(=O)[nH]c2=O)C(NC(C)=O)(C(F)(F)F)C(=O)N3)cc1 (stereo not given)	-20	-0.3	4	6.7	-17	-2.7	0	0.0
Cc1cc(C)cc(-n2ncc3c2CCCC3NC(=O)C2CCC2)c1 (stereo not given)	1	0.2	·	0.8	5	0.9	5	-1.8
CCCC(=O)Nc1cc(-c2nn(C)c(=O)c3ccccc23)ccc1N1CCOCC1	7	-0.5	-5	-0.6	-1	1.9	1	4.0
COc1ccc(-c2nc(C(N)=O)c3[nH]c(=O)n(-c4cccc(Cl)c4)c3n2)cc1OC	5	·	·	2.0	6	·	-8	-5.9
O=C(O)c1ccc(Nc2ccc(F)c(F)c2)c([N+](=O)[O-])c1	14	1.0	5	0.9	5	1.8	-5	7.6
CC(C)(C)C1CCC(=NNC(=O)CN(c2ccccc2)S(C)(=O)=O)CC1 (stereo not given)	9	1.1	·	4.5	12	1.4	3	0.5
COc1ccc2[nH]c3c(=O)n(CCCCC(=O)N4CCCC4)c(=S)[nH]c3c2c1	0	0.2	-2	5.3	14	-1.7	11	0.1
CCCCCc1cc(=O)c2ccccc2o1	·	-0.3	2	·	·	2.6	-3	-0.1
Cc1ccc(-n2nc3c(c2NC(=O)c2ccco2)CS(=O)C3)cc1 (stereo not given)	-10	0.1	-4	2.2	-3	-1.5	0	3.8
COc1cccc(-c2nc(CSCC(=O)N3CCc4ccccc43)c(C)o2)c1	9	1.0	-1	-4.4	-1	-3.1	0	2.9
O=C(NCc1ccc(OC(F)(F)F)cc1)c1cccc2c1C(=O)c1ccc(N3CCCCC3)cc1S2(=O)=O	·	1.3	0	·	·	-6.4	-11	1.8
Cc1ccc(NC(=O)COC(=O)COc2ccc(Cl)cc2C)c([N+](=O)[O-])c1	4	-0.6	-8	2.3	21	6.3	5	2.4
CCOC(=O)CN1C(=O)C(=O)N(Cc2ccccc2)C1=O	2	0.0	1	4.9	-3	0.3	4	3.0

Part of the list above, with values under each structure:
Values run as follows: T cruzi repl | A1 inh | Beta cell apopt | RanGTP-Imp inh | Calb FLC | LANA-H2A inh | B2AR ag | UCH37 DUB inh
> COc1ccc(OC)c(-n2c(-c3ccc(C)cc3)n[nH]c2=S)c1
 : -4 | 0.4 | 0 | 4.2 | -1 | -2.0 | -3 | 3.7
> CCS(=O)(=O)NCCNc1ccc([N+](=O)[O-])cc1
 : -5 | 0.1 | -7 | 3.7 | 5 | 1.3 | -1 | 16
> COc1cccc(OCCNC(=O)c2ccc(C)cc2)c1
 : 5 | 0.3 | 2 | 5.3 | -1 | -1.0 | -1 | 2.4
> S=C(Nc1ccccc1)Nc1ccc(OCc2ccccc2)cc1
 : 8 | 0.2 | -12 | 4.0 | 7 | 4.2 | 2 | -0.7
> O=c1c2ccsc2ncn1Cc1ccccc1F
 : · | 0.4 | 3 | · | · | -0.8 | 4 | -0.6
> O=C(O)c1cccc(NC2=Nc3cccc4cccc2c34)c1
 : -3 | -7.8 | -11 | 3.9 | 1 | 1.8 | -2 | 3.8

From PubChem BioAssay
